From PubChem
D2 ag – Beta-Arrestin HTS for Positive Allosteric Modulators of the Human D2 Dopamine Receptor: Agonists; DiscoveRx PathHunter D2 beta-arrestin, luminescence, 90 min; 100% = 57 uM dopamine signal; activation, % (test concentration not listed); 0.084% of 360,000 active; in the data active = activation above about 40%; inconclusive = about 15% to 40%; inactive = below about 15%; note: compound concentration not given in the record; the text of the record calls up to 30% inactive
Target sequence (P14416 whole entry, looked up): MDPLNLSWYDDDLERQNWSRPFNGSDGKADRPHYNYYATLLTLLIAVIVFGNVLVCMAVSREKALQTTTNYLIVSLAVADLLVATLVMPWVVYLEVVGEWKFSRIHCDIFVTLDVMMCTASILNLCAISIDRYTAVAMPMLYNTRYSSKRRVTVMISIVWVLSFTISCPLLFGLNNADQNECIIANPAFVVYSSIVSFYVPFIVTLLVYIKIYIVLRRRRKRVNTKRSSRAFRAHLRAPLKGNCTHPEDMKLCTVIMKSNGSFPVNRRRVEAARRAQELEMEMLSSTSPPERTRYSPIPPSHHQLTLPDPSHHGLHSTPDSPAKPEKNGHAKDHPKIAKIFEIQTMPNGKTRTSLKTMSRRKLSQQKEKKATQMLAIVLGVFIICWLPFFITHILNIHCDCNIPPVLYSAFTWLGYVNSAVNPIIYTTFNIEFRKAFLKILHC
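DiscoveRx PathHunter D2 beta-arrestin cells (2,100/well) attached overnight, then compound-stimulated 90 min at 37 C in HBSS/10 mM HEPES/0.1% Tween-20 buffer; beta-galactosidase complementation read by luminescence after 1 h at ambient temperature. Dopamine 57 uM final (EC100) as control.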
ClpP mod – qHTS Assay for Activators of ClpP; ATP-dependent Clp protease proteolytic subunit (Bacillus subtilis (strain 168)), P80244; 1.9% of 340,000 active; purified B. subtilis ClpP, FRET peptide cleavage, 20 min; Potency, µM (doses to about 57.5 µM), without a hit: at the top dose activity change, negative = active; active = well fitted falling curve with a large enough effect; inconclusive = small, poorly fitted or top-dose-only effect; inactive = no such curve, though single readings can be large or run the other way; note: potency is the fitted concentration of half-maximal effect; the source files actives as falling curves though it sought activators and does not explain the sign; nearly all actives have a fitted effect of over 65% in size; many hits overshoot -100%
Target sequence (P80244 whole entry, looked up): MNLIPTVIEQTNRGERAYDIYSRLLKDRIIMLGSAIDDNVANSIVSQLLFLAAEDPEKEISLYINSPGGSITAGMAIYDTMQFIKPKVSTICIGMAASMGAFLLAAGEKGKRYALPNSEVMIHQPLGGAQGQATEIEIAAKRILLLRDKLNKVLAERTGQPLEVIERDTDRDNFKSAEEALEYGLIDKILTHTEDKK
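FRET quenching reversal measured ClpP activation: 10 microg/mL B. subtilis ClpP at pH 8 with the FRET-FV decapeptide, read at 430 nm after 320 nm excitation. The 20-min minus 0-min signal was scaled between DMSO/no-enzyme wells and ADEP (5.8 microM final).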
PINK1 expr mod – A Quantitative High throughput Screen to Identify Chemical Modulators of PINK1 Expression; PINK1 immunofluorescence, high-content cytometry, 24 h; Potency, µM (doses to about 76.6 µM), for inactives: at the highest dose activation (PINK1 increase), hits mostly activators; 0.2% of 410,000 active; AID 624263, 2012; active = well fitted activation curve with a large enough effect; inconclusive = small, poorly fitted or top-dose-only effect; inactive = flat fitted curve, though single readings scatter; cell line not stated here;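 note: potency is the fitted concentration of half-maximal effect; % of control where 0% means no effect; nearly all actives have a fitted effect of over 65% in size; a mitochondrial uncoupler was the plate control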
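Stable cell line, 250 cells/well, 12 h attachment; compounds pinned at 5 concentrations, 24 h; CCCP control. Fixed with nuclear dye, primary antibodies 12 h at 10 degrees C, secondary plus cell stain; laser-scanning cytometer read.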
gsp antag – qHTS for Antagonists of gsp, the Etiologic Mutation Responsible for Fibrous Dysplasia/McCune-Albright Syndrome: qHTS; Potency, µM (top dose mostly 76.9 µM), for inactives: at the highest dose activity change, negative = inhibition, most hits filed as inhibitors; gsp-mutant cells, cAMP HTRF, 30 min; control for the full effect not named in the record; 0.4% of 340,000 active; active = falling curve of any shape with a large fitted effect; inconclusive = falling curve, mostly with a smaller effect; inactive = flat or rising curve; cell line not stated here;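 note: intracellular cAMP measured with PDE inhibitor Ro 20-1724 present during compound exposure; potency is the fitted concentration of half-maximal effect; % is set by controls: 0 for no effect and ±100 for the full control effect; nearly all actives have a fitted effect of over 65% in size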
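HTRF cAMP read-out (cAMP-d2 plus anti-cAMP antibody-K in lysis buffer, 30 min RT). Before lysis, cells are exposed to compounds with […] for 30 min at 37C in DPBS containing Ca/Mg, BSA and Tween 20.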
Menin-MLL FL inh – qHTS Assay for Inhibitors Targeting the Menin-MLL Interaction in MLL Related Leukemias: Competition With Fluorescein Labeled MLL-derived Peptide | Fluorescence polarization, fluorescein-MLL peptide displacement from menin | 290,000 tested, under 10 active | AID 1766, 2009 | FP activity change, % at 61.4 µM; inconclusive = falling polarisation curve, or a change in total fluorescence; inactive = total fluorescence flat and polarisation flat or rising; no compound was filed as active; the % refers to the polarisation; negative = inhibition;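 note: % of control where 0% means no effect; inhibitors lower the polarisation; unlabelled MLL peptide was the positive control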
Sfp PPTase inh – qHTS Assay for Inhibitors of Bacillus subtilis Sfp phosphopantetheinyl transferase (PPTase). Potency, µM, for the others: max response, negative = inhibition, usual class: inhibitors. Biochemical Sfp PPTase activity, qHTS. 3.5% of 310,000 active; active = well fitted inhibition curve with a large enough effect; inconclusive = small, poorly fitted or top-dose-only effect, or another doubt; inactive = no such curve, though single readings can be large or run the other way;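 note: the enzyme is Sfp with the accession as filed and its product quenches rhodamine fluorescence; potency is the fitted concentration of half-maximal effect; 0% = enzyme reaction without inhibitor and -100% = no enzyme wells; top concentration of the series not given in the record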
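After 15 min at room temperature with compound, 15 nM Sfp received 5 uM rhodamine-CoA plus 12.5 uM BHQ-2-ybbR (50 mM Hepes pH 7.6, 10 mM MgCl2). Rate came from the fluorescence difference over 30 min, ex 525/em 598 nm.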
gsp ag – qHTS for Agonist of gsp, the Etiologic Mutation Responsible for Fibrous Dysplasia/McCune-Albright Syndrome: qHTS | Potency, µM (doses to about 76.9 µM), for the others: at the highest dose activation (cAMP increase), actives largely listed as activators | gsp mutant cells, cAMP HTRF, 30 min; control for the full effect not named in the record | 0.13% of 340,000 active; active = well fitted activation curve with a large enough effect; inconclusive = small, poorly fitted or top-dose-only effect, or another doubt; inactive = no such curve, though single readings can be large or run the other way; cell line not stated here;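 note: phosphodiesterase inhibitor Ro 20-1724 added with compounds to block cAMP breakdown; potency is the fitted concentration of half-maximal effect; nearly all actives have a fitted effect of over 60% in size; about a fifth of the inactives were tested at one dose only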
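Cells in DMEM/10% FBS with G418 were pretreated with compounds in DMSO plus […] (300 uM stock) for 30 min at 37C. cAMP was measured by HTRF (cAMP-d2 plus anti-cAMP antibody-K) after 30 min at room temperature.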
* hit, by the source's call; ? = inconclusive; / = not tested or not shown; & = joins results of further samples; [ ] = dose if it differs, or a comment.

entry	molecule	D2 ag	ClpP mod	gsp ag	Menin-MLL FL inh	PINK1 expr mod	gsp antag	Sfp PPTase inh
1	Cc1cc(CNC[C@H]2O[C@@H](n3ccc(=O)[nH]c3=O)[C@H](O)[C@@H]2O)no1	-8.2	-1.4%	/	/	0.0%	/	/
2	O=C(CCc1n[nH]c(=O)[nH]c1=O)Nc1cccc([N+](=O)[O-])c1	-2.1	/	15%[15.4 µM]	-4.6	7.9%	4%	-18%
3	C[C@@]12C(=O)N(c3ccc(C(F)(F)F)cc3)C(=O)N1[C@@H]1c3ccccc3OC[C@@H]1[C@H]2c1ccccc1	0.0	-1.6%	/	5.2	4.0%	32µM*	18%
4	COCCN(CCOC)C(=O)c1ccc(NS(=O)(=O)c2ccc3[nH]c(=O)[nH]c3c2)cc1	-4.1	-0.4%	4%[15.4 µM]	/	0.3%	15%	-12%
5	O=C(CSc1ncnc2scc(-c3ccccc3)c12)NC1CCS(=O)(=O)C1 (stereo not drawn)	-1.4	/	-25%[15.4 µM]	8.4	3.9%	14%	-18%
6	COc1ccc(S(=O)(=O)Nc2cc3c4c(oc3c3ccccc23)CCCC4=O)cc1	6.3	-1.9%	24%	6.4	-0.2%	11%	-4%
7	COC(=O)C1=C(C)N(Cc2ccco2)C(=O)N[C@@H]1c1ccc(Br)cc1	0.9	4.7%	?	1.6[11.7 µM]	0.9%	7%	-4%
8	Cc1nn(Cc2ccc(Cl)cc2)c(Cl)c1/C=N/NC(=O)CNc1ccccc1F	-0.5	2.1%	?	-2.6	-0.2%	1%	4%
9	CCOC(=O)Cc1csc(SCC(=O)Nc2sc3c(c2C(N)=O)CCC3)n1	-11	-2.8%	11%	16	0.7%	2%	-5%
10	O=c1[nH]nc2c3ccccc3cnn12	-2.5	-1.6%	0%	2.6	-0.7%	11%	9%
11	Cc1ccc(C)c(N2CCN(CCCNC(=O)Cn3cc4c(n3)CCC(C)C4)CC2)c1 (stereo not drawn)	-0.8	1.5%	-43%[inhibitor]	3.4	4.0%	12%	8%
12	CN1CCN(Cc2oc(CO)cc(=O)c2O)CC1	0.5	-0.5%	-10%	-0.3	-0.9%	7%	-3%
13	Cc1ccc(C(=O)N2CCN(C(=O)CN3CCCC3)C2)cc1	0.2	-2.3%	-74%[inhibitor]	-1.0	-0.1%	6%	9%
14	CCOC(=O)C1=CNS(=O)(=O)NC1c1ccc2ccccc2c1 (stereo not drawn)	0.1	-2.6%	/	/	0.7%	-7%	/
15	CCCCN(C)CCCNC(=O)CCn1nc(-c2ccccc2)ccc1=O	-1.0	-6.2%	3%	0.7	-3.4%	13%	10%
16	CCCCC(=O)NC(NC(=O)CCCC)c1ccc(OCCC)c(OC)c1	0.3	-2.7%	-4%	0.6	-0.2%	13%	6%
17	O=C(COC(=O)c1cccc(S(=O)(=O)N2CCc3ccccc32)c1)Nc1ncc(Cl)cc1Cl	-6.1	-1.0%	-9%[15.4 µM]	4.8	3.2%	-1%	7%
18	Clc1ccc(CN2CCC(Cc3ccccc3)CC2)cc1	-1.4	-1.8%	?	-0.8	8.7%	3%	?
19	C=CCNC(=O)CC(=O)N/N=C/c1ccccc1F	-0.7	-9.4%	-58%[inhibitor]	1.2	/	6%	13%
20	Cc1ccccc1NC(=O)c1cc2ccccc2o1	-1.2	-0.5%	-13%	0.2	1.9%&-0.7%	1%	18%
21	Cc1nc(-c2ccc(F)cc2)c(CC(=O)N(C)CC(=O)Nc2ccccc2Br)s1	-3.1	-0.8%	-4%	/	0.2%	-2%	/
22	CNC[C@H](CC1CCCCC1)NC[C@H](CO)NCC1(c2ccccc2)CC1	-0.9	-0.1%	?	1.3	-1.7%	5%	20%
23	CCOc1ccc(CC2c3cc(OCC)c(OCC)cc3CCN2C(=O)c2cc(OC)c(OC)c(OC)c2)cc1OCC (stereo not drawn)	-6.2	0.1%	-24%	-2.0	1.2%	-2%	?
24	O=C(Nc1ccccc1Cl)N1CCCN(c2nc(-c3ccccc3)ns2)CC1	-0.7	1.0%	-38%[inhibitor]	4.2	3.8%	?	6%
25	CC(C)(C)NC(=O)C1c2ccccc2Oc2ccccc21	-3.9	-0.8%	-23%	-2.3	1.3%	-6%	-1%
26	CCCn1c(C(C)Nc2nc(-c3cc(Cl)c(N)c(Cl)c3)cs2)nc2cc(Cl)c(N3CCCCC3)cc21 (stereo not drawn)	0.3	-1.1%	/	-2.1	2.9%	2%	3%
27	COC(=O)c1cc(NS(=O)(=O)c2ccc(NC(C)=O)cc2)cc(C(=O)OC)c1	-2.7	2.7%	1%	9.0	-3.1%	1%	15%
28	CCCCc1ccc(NC(=S)NCc2cccc(OC)c2)cc1	0.5	/	-4%	5.7	?	-14%	3%
29	CCOc1cc(S(=O)(=O)Nc2ccncc2)ccc1F	-3.3	2.0%	-10%	-9.3	-0.4%	-2%	15%
30	CCc1ccccc1NC(=O)CSc1nc(C)c(C)o1	2.9	-0.6%	-16%	/	1.4%	-8%	9%
31	Cc1ccc(C(=O)NC2CCCCC2)cc1S(=O)(=O)N1CCCC1	-5.2	1.4%	0%	-0.2	3.4%	-26%	8%
32	O=C(CN1CCOCC1)NN=C1CCCCCCCCCCC1	-2.1	0.8%	14%	1.7	3.2%	10%	11%
33	COc1cccc(COC(=O)C2CCN(S(=O)(=O)c3cccs3)CC2)c1OC	-2.5	/	3%[15.4 µM]	/	1.6%	-5%	/
34	COc1ccccc1C(=O)NC(CCSC)C(=O)NC1CCCCCC1 (stereo not drawn)	-4.4	/	0%[15.4 µM]	-5.3	-0.5%	/	1%
35	C[C@@H]1CN([C@@H](C)CO)C(=O)c2cc(N(C)C)ccc2O[C@@H](C)CCCCO[C@@H]1CN(C)S(=O)(=O)c1cccs1	-6.9	1.5%	-33%[inhibitor]	/	2.1%	/	/
36	CN(C)S(=O)(=O)Oc1ccsc1C(=O)Nc1cccc(Cl)c1	-3.2	1.9%	-39%	-0.8	-1.8%	?	-3%
37	O=C(O)CCc1nn2c3ccccc3n(CC(=O)c3ccccc3)c2nc1=O	-1.5	32µM*	15%	2.5	18%[38.3 µM]	11%	6%
38	COc1cccc(C2=NN(C(=O)CCCC(=O)O)C(c3cccs3)C2)c1 (stereo not drawn)	-0.5	-25%	?	1.7	-0.1%	?	-7%
39	COc1ccnc(Nc2ccc(C)c(C)c2)c1C#N	-1.9	0.1%	-51%[inhibitor]	4.9	/	1%	1%
40	O=C(Cn1cnc2c(oc3ccccc32)c1=O)NCc1ccccc1	-2.4	-0.1%	?	2.2	12%	10%	22%
41	Cc1c(CC(=O)O)c(=O)oc2c(C)c3occ(-c4ccccc4)c3cc12	-2.9	7.1%	-27%[15.4 µM]	0.0	-1.9%	-35%	?
42	COc1ccc(CCNc2oc(-c3cccc4ccccc34)nc2P(=O)(OC)OC)cc1OC	-0.5	28%	0%	0.6	-1.5%	5%	-10%
43	COc1ccc(OC)c(C(c2nnnn2C2CCCC2)N2CCN(c3ccccc3F)CC2)c1 (stereo not drawn)	-3.0	25µM*	1%	-2.3	-1.6%	-8%	8%
44	O=C1/C(=C\c2ccc(-c3ccccc3Cl)o2)SC(=S)N1CC1CCCO1 (stereo not drawn)	2.6	-1.3%	-46%[inhibitor]	?	16%	6%	?
45	O=C(NCC1CCCO1)C1CCN(S(=O)(=O)N2CCCC2)CC1 (stereo not drawn)	-0.5	-1.1%	5%	-0.4	/	3%	-2%
46	Cc1ccc(C(=O)N/C(=C\c2ccc(Br)cc2)c2nc(=S)[nH][nH]2)cc1	-1.0	-1.1%	2%	1.4	-2.0%[38.3 µM]	-7%	1%
47	CCN(CC(=O)NCc1cccs1)S(=O)(=O)c1ccc([N+](=O)[O-])cc1	0.5	-0.3%	27%	-0.1	-0.3%	7%	17%
48	CCn1c(NCc2ccco2)nc2c1c(=O)n(C)c(=O)n2C	-1.1	0.4%	5%	-2.0	1.2%	6%	-13%
49	COc1ccc(Cl)cc1NC(=O)CN(C)C(=O)C1CCN(C(=O)Nc2ccccc2)CC1	1.4	0.6%	-13%	/	2.2%	-17%	/
50	C=CCN(Cc1cc(OC)ccc1OC)C(=O)c1cc2ccc(OC)cc2[nH]1	-4.5	-27%	?	1.2	6.4%	3%	7%

Later entries.
entry	molecule	D2 ag	ClpP mod	gsp ag	Menin-MLL FL inh	PINK1 expr mod	gsp antag	Sfp PPTase inh
51	CCS(=O)(=O)n1nc(-c2ccc(Cl)cc2)nc1N	-5.6	-3.0%	1%	4.1	0.8%	2%	0%
52	O=C(Nc1ccc(OC(F)F)cc1)c1cc(S(=O)(=O)N2CCOCC2)ccc1F	1.2	2.2%	6%[15.4 µM]	/	1.0%	2%	8%
53	O=C(Nc1c2c(nn1-c1ccccc1)CS(=O)(=O)C2)c1ccc2c(c1)OCO2	-5.0	-3.0%	-36%[inhibitor]	/	-3.3%	0%	5%
54	Cn1c(=O)c2cc(S(=O)(=O)Nc3cccc(F)c3)ccc2n(C)c1=O	-2.7	-19%	69%[15.4 µM]	-4.9	1.9%	-3%	12%
55	Cn1cnnc1SCC(=O)NC1CCCC1	0.2	1.3%	-17%	-1.5	0.5%	7%	16%
